CDC25B CDK2 inh = human CDC25B-CDK2/CyclinA binding inhibition; AID 1259370; HTRF CDC25B-CDK2/CyclinA binding, anti-His/anti-Flag; stronger effect = higher value; P30305+P24941; z-score (no concentration beside the values); actives 0.72% (n = 94,000);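 note: score is relative to mean and SD of negative controls; strong numbers were not always called active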
TAR Tat displ = HIV-1 TAR-Tat binding disruption. z-score (no concentration beside the values). AID 1259389. actives 0.6% (n = 100,000). HIV-1 TAR RNA, Tat peptide displacement FRET; stronger effect = higher value;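 note: score is relative to mean and SD of negative controls; some compounds called inactive have numbers as strong as hits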
Starred values were filed as active, the others as inactive; . = no result given.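 Rule for the calls: active = z-score from 3 up in half or more of its runs; inactive = the rest.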 This is a random part of the collection; about 0.87% have a hit in one of these screens.

Values run as follows: CDC25B CDK2 inh | TAR Tat displ
- CCC(CC)c1nn2c(=O)cc(CSc3n[nH]c(N)n3)nc2s1
→ . | -0.34
- Cc1ccc(-c2noc(-c3cccnc3NCc3ccc(Cl)cc3)n2)cc1
→ -1.1 | 1.3
- COc1ccccc1-c1cc(N)n(S(=O)(=O)Cc2ccccc2)n1
→ -1.7 | 1.4
- CCOCCOC(=O)C1=C(C)NC2=C(C(=O)CC(c3cccs3)C2)C1c1cccc(O)c1 (configuration not stated)
→ -0.65 | 0.44
- CCc1nn2c(=O)cc(COC(=O)COc3ccc(Cl)cc3)nc2s1
→ . | 0.04
- COC(=O)c1ccc(NS(=O)(=O)c2c[nH]c(C(=O)OC)c2)cc1
→ . | 1.4
- COc1cc(/C=C2\SC(=O)N(c3ccccc3)C2=O)ccc1OC(=O)C12CC3CC(CC(C3)C1)C2
→ -1.7 | .
- CCN1CCN(C(=O)C2CCC(CNS(=O)(=O)c3ccc4c(c3)CC(C)N4C(C)=O)CC2)CC1 (configuration not stated)
→ . | -1.5
- CCCCN1C(=O)C2(/C(=C(/O)c3ccc(F)cc3)C(=O)C(=O)N2CCCN(C)C)c2ccccc21 (configuration not stated)
→ -0.42 | 1.4
- COC(=O)c1sc2cccc(F)c2c1S(=O)(=O)Nc1ccccc1OC
→ . | 0.32
- O=C(CCCSc1nc(-c2ccco2)cc(C(F)(F)F)n1)NCc1ccncc1
→ -1.5 | -0.65
- C=C1c2cc(OCC)ccc2NC(=O)N1c1ccc(Cl)cc1
→ -0.12 | .
- CC(C)(N=Nc1ccccc1)NC(=S)NN
→ -1.9 | .
- CC(C)(C)C(=O)Cn1c(=O)n(Cc2ccco2)c(=O)c2ccc(C(=O)NC3CCCC3)cc21
→ -1.1 | .
- C=CCn1c(NCc2ccccc2C)nc2ccccc21
→ -0.9 | 1.4
- CC1=NN(C(N)=O)C2(O)CC3C(C12)C3(C)C (configuration not stated)
→ -1.5 | .
- COCCNC(=O)c1cc2c(s1)-c1ccccc1OC2
→ 0.53 | 0.41
- COC(=O)c1cc2oc3ccccc3c2n1CC(=O)N1CCCc2ccccc21
→ -1.9 | -0.59
- CCOc1ccc(N(C)S(=O)(=O)c2cc(-c3cnc(C)o3)ccc2OC)cc1
→ . | 0.94
- CN(C)c1ccc(NCc2cccc(Br)c2)cc1
→ -0.09 | 0.24
- FC(F)(F)c1ccc(SCCCN2CCN(c3cccc(Cl)c3)CC2)nc1
→ -0.36 | .
- O=C(Nc1ccc2oc(-c3ccccc3Cl)nc2c1)c1cncc(Br)c1
→ -5.5 | .
- Cc1c(=N)sc(=S)n2c1sc1ccccc12
→ 0.84 | .
- CCn1nc(C)c(CNC(=O)NC2CCCC2)c1C
→ . | 0.01
- CN1C(=O)Cc2cc(S(=O)(=O)N3CCN(c4ccccc4)CC3)ccc21
→ . | 0.72
- Cc1cc(-c2noc(C(F)(F)F)n2)cc(-c2noc(C(F)(F)F)n2)c1
→ -1 | .
- COc1ccc(O)c(C2=NN3C(C2)c2ccccc2OC3c2ccccc2F)c1 (configuration not stated)
→ -0.64 | 0.06
- CCc1nnc(NC(=O)c2c(C)oc3ncnc(N4CCOCC4)c23)s1
→ . | 2.3
- Cc1ccc(-n2ncc3c(=O)n(CCc4ccc(Cl)cc4)c(-c4ccco4)nc32)cc1
→ -1.8 | .
- Cc1[nH]c2ccccc2c1C(=O)CSc1nccn1C
→ -4.3 | 2.2
- CCc1ccc(CNc2ncnc3onc(-c4ccc(F)cc4)c23)cc1
→ . | 0.31
- O=C(c1cnn(-c2cccc(F)c2)c1-n1cccc1)N1CCN(c2ccccn2)CC1
→ . | 0.6
- O=c1[nH]c(-c2cccc(O)c2)nc2c1Cc1c(ccc3ccccc13)O2
→ -1.8 | -1.4
- Fc1ccc(CNCCSc2nnnn2-c2ccccc2)cc1
→ -1.5 | -1.5
- Cc1ccc(C)c(OCc2nc3ccc(F)cc3[nH]2)c1
→ 0.23 | 2.2
- COc1cccc(-c2[nH]nc3nc(-c4cccc(Br)c4)cc(C(=O)O)c23)c1
→ 0.24 | 1.3
- CCN1CCN(c2cc3c(cc2F)c(=O)c(C(=O)O)cn3C2CC2)CC1
→ . | 1.4
- CC1=C(C(=O)Nc2ccc(C(=O)NC3CCCC3)cc2)SCCO1
→ . | 0.96
- CCc1cc2c(=O)c(-c3nc4ccccc4[nH]3)coc2c(CN(CC)CC)c1O
→ -0.91 | 2.2
- Cc1ccc(OCCSc2nc3ncnc(N)c3[nH]2)c(C(C)C)c1
→ -1.8 | 2.1
- Nc1nnc(-c2ccc(O)cc2)s1
→ 2.8 | 1.7
- COc1ccc2oc(=O)c(-c3csc(NC4CCCCC4)n3)cc2c1
→ -1.3 | .
- CC12CCC3C(C1)C(C(=O)O2)C(=O)OC3(C)C (configuration not stated)
→ -2.8 | .
- O=C(C1CCN(S(=O)(=O)c2cnc[nH]2)CC1)N1CCN(c2cccc(Cl)c2)CC1
→ -1.4 | .
- CCOC(=O)c1c(C)oc2ccc(N(C(=O)C3CCCCC3)S(=O)(=O)c3cccs3)cc12
→ -0.34 | 0.44

5 successive records out of the list so far, quoted:
Values run as follows: CDC25B CDK2 inh | TAR Tat displ
- CCc1ccc(CNc2ncnc3onc(-c4ccc(F)cc4)c23)cc1
→ . | 0.31
- O=C(c1cnn(-c2cccc(F)c2)c1-n1cccc1)N1CCN(c2ccccn2)CC1
→ . | 0.6
- O=c1[nH]c(-c2cccc(O)c2)nc2c1Cc1c(ccc3ccccc13)O2
→ -1.8 | -1.4
- Fc1ccc(CNCCSc2nnnn2-c2ccccc2)cc1
→ -1.5 | -1.5
- Cc1ccc(C)c(OCc2nc3ccc(F)cc3[nH]2)c1
→ 0.23 | 2.2

Further compounds
Values run as follows: CDC25B CDK2 inh | TAR Tat displ
- O=C(c1ccc(F)c(F)c1)N1CCN(S(=O)(=O)c2cc3c4c(c2)CCN4C(=O)CC3)CC1
→ . | -0.07
- N#Cc1c(N)nc2c(c1-c1ccco1)CCCCC2
→ -0.41 | -0.32
- O=C(c1ccc2cccc(O)c2n1)N1CCN(c2ccc(Cl)cc2)CC1
→ . | 0.21
- Cc1nc2c(c(C)nn2C(C)(C)C)c(C)c1CCC(=O)Nc1ccc2c(c1)OCCO2
→ -0.47 | 0.78
- O=C(c1ccc(N2C(=O)CCS2(=O)=O)cc1Cl)N1CCN(c2ccc(F)cc2)CC1
→ -1.1 | 1
- COc1ccc(N2CCN(C(=O)CCc3nnc4ccc(N5CCCC5)nn34)CC2)cc1
→ . | 0.27
- COc1cccc(-n2nnc(-c3nc(-c4ccc5c(c4)OCO5)no3)c2C)c1
→ . | 1.2
- O=C(CSc1nc2ccc(N3C(=O)c4ccccc4C3=O)cc2s1)NCCOc1ccc(Cl)cc1
→ -1.9 | .
- NC(=O)c1nc(-c2ccc(Cl)cc2)nc2c1[nH]c(=O)n2-c1ccc(F)cc1
→ . | 0.88
- C=C(C)CSC1=C(C#N)C2(CCCCC2)C(C#N)C(=O)N1 (configuration not stated)
→ -1.4 | .
- O=S(=O)(Nc1nc2ccccc2nc1Nc1ccc(Cl)cc1)c1ccccc1
→ 5.7 | -0.59
- CCC(C)C1N=C2c3ccccc3N=C(SC(C)C(=O)Nc3ccccc3)N2C1=O (configuration not stated)
→ . | -0.4
- CCOc1ccccc1-c1noc(CSc2nnc(-c3ccncc3)n2-c2ccccc2)n1
→ -1.1 | -1.7
- CCn1c(=O)c(N2CCCC2C(=O)O)nc2ccccc21 (configuration not stated)
→ -1.5 | 0.83
- CCC(C#N)(c1ccccc1)c1ccc(N)cc1 (configuration not stated)
→ -0.67 | .
- CCCCNC(=O)C1Cc2cc(S(=O)(=O)N3CCCC3)ccc2N1C(C)=O (configuration not stated)
→ . | 1.9
- COc1cccc2sc(N(CCCN(C)C)C(=O)c3ccco3)nc12
→ . | 0.88
- Nc1ccc(-c2nc3ccccc3s2)cc1
→ -2.9 | 0.89
- COC(=O)c1cccc([N+](=O)[O-])c1-c1c(C(=O)OC)cccc1[N+](=O)[O-]
→ -0.57 | .
- CSc1nc(NCc2ccco2)cc(-c2ccccc2)n1
→ 0.6 | -1.7
- O=C1CCCc2cc(S(=O)(=O)Nc3cccc4c3CCCC4)ccc2N1
→ . | 0.61
- O=C(Nc1nc([N+](=O)[O-])cs1)c1cc2ccccc2o1
→ -1.9 | 1.6
- CC1(C)C2CCC1(CS(=O)(=O)NCc1ccc(C(F)(F)F)cc1)C(=O)C2 (configuration not stated)
→ -2.2 | .
- CC1(C(=O)N2CCCCC2)CCC(C(=O)N2CCCCC2)C1(C)C (configuration not stated)
→ -1.6 | .
- CC(C)Cn1cc(NC(=O)Nc2cc(F)ccc2F)c2ccccc2c1=O
→ . | 1.1
- Cc1nc2sccn2c(=O)c1S(=O)(=O)N1CCC(C)CC1
→ . | 1.9
- CCOC(=O)N1CCc2c(sc3c2C(=O)NC(c2cccc(Br)c2)N3)C1 (configuration not stated)
→ 6.4* | -1.1
- CCOC(=O)c1c(C)nc2n(CCN3CCOCC3)c3ccccc3n12
→ -1.4 | 1.9
- O=C(NCCO)C(=O)Nc1c2c(nn1-c1ccc(F)cc1)CSC2
→ . | 1.1
- COCc1c(Br)c(C)nc2sc3c(=O)n(Cc4ccccc4)nnc3c12
→ -2.2 | 1.8

Continuation:
canonical_smiles | CDC25B CDK2 inh | TAR Tat displ
OCc1cnc(SCc2cccc(Cl)c2)n1Cc1ccccc1 | . | 1.1
CCOc1ccc(-c2nn3c(Cn4cnc5ccccc54)nnc3s2)cc1 | -0.85 | -4.7
CS(=O)(=O)CC[C@@H](C(=O)Nc1cccc(F)c1)N1Cc2ccccc2C1=O | -0.85 | -0.5
O=S(=O)(Nc1cccc(-c2ccc(N3CCOCC3)nn2)c1)c1ccc(F)cc1 | . | 0.82
CCC(=O)N1c2cc(C)ccc2C(=C2SC(C(=O)OC)=C(C(=O)OC)S2)C(=S)C1(C)C | -1.4 | -1.1
Cc1nc(-c2ccc(S(=O)(=O)N(Cc3ccccc3)C(C)C)cc2)co1 | . | -0.51
O=C1C(=O)N(c2nc3ccccc3s2)C(c2ccccc2)/C1=C(\O)c1ccccc1 (configuration not stated) | -4.3 | -2
O=C1CSCC(=O)N1c1ccc(-c2csnn2)cc1 | -1.9 | .
Cc1ccc2nc(Nc3nc(C)c4ccccc4n3)[nH]c(=O)c2c1 | 0.5 | -11
COc1ccc(CCN[C@H]2CS(=O)(=O)C[C@@H]2S(=O)(=O)c2ccc(OC)cc2)cc1 | -1.5 | 1.6
S=C(NCCc1ccccc1)c1ccccc1 | -1.3 | .
Cn1c(=O)oc2cc(S(=O)(=O)NCCN3CCCCCC3)ccc21 | -0.63 | .
CN(CC(=O)NC1CCCCC1)S(=O)(=O)c1ccc2c(c1)CCC(=O)N2 | -0.35 | .
CCc1c(C)nc2ncnn2c1Nc1cc(C)ccc1OC | -0.99 | 0.69
COc1ccccc1Nc1nc(N(C)C)nc(N)c1[N+](=O)[O-] | . | 0.98
COc1ccc(-c2noc(-c3nnn(-c4cc(C)cc(C)c4)c3C)n2)cc1 | . | 0.05
c1csc(CSc2nnc3sc4ccccc4n23)c1 | -2 | .
O=C(C1CCN(c2nc3ccccc3n3cccc23)CC1)N1CCc2ccccc2C1 | . | -1.8
O=C(NCC1CC1)c1cc(Br)cc(Br)c1O | -1.1 | .
Cc1cc(N2CCC(C)CC2)n2nnnc2n1 | -0.37 | 1.2
O=C(CSCc1ccccc1)Nc1cc(=O)[nH]c(=O)[nH]1 | . | 1.9
COc1cccc(NC(=O)C2C3C=CC4(O3)C2C(=O)N(C2CC2)C4C(=O)NC2CCCCC2C)c1 (configuration not stated) | 1.6 | .
Cc1ccc(CNCC(O)c2ccccc2)s1 (configuration not stated) | -1.6 | 0.07
CCCNS(=O)(=O)c1ccc(CN2C(=O)c3cccnc3C2=O)s1 | . | -0.61
CCOc1cccc(-n2cc(-c3ccc(OC)cc3)[nH]c2=S)c1 | -2.5 | .
O=C(Nc1cccc(F)c1)c1cnn(-c2cccc(F)c2)c1-n1cccc1 | . | 0.87
COc1ccc(-c2cc(NCc3cccc(OC)c3)n3cnnc3n2)cc1 | -1.4 | 0.54
COc1cccc(C(=O)CC2(O)C(=O)Nc3ccc(Br)cc32)c1 (configuration not stated) | -1.8 | .
CCOC(=O)N1CCN(C(=O)Cn2ncc3c2-c2ccccc2OC3)CC1 | -1.7 | 0.61
CC(=O)Nc1ccc(NC(=O)Nc2ccccc2)cc1 | -0.81 | .
CCC(C)NC(=O)c1cc2sc3ccccc3c2s1 (configuration not stated) | . | 1.2
Cc1ccc2nc(N(CCCN(C)C)C(=O)C3=COCCO3)sc2c1 | . | 0.32
COc1ccc(-c2noc(COc3cccc(C)c3)n2)cc1OC | 4.2 | .
COCCc1nn2c(=O)cc(COC(=O)c3ccc(Br)cc3)nc2s1 | . | 1.3
CCOC(=O)Cn1nc(SCC)n2c(=O)c3c(nc12)-c1ccccc1CC3(C)CC (configuration not stated) | -2 | -0.05
Cc1ccc2c(c1)c1cccc3c1n2CCN3CCC(N)=O | -9.1 | .
CN1C(C(=O)NC(C)(C)C)=CC(c2ccc3c(c2)OCO3)=NS1(=O)=O | -1.5 | 1.2
Cc1cccc(NC(=O)Nc2cn(C)c(=O)c3ccccc23)n1 | . | 1.7
c1ccc(C2=Nc3ccccc3N=C(c3ccccc3)C2)cc1 | -0.41 | .
Cc1ccc(S(=O)(=O)NC(=O)Nc2ncc3c(n2)CC(c2ccco2)CC3=O)cc1 (configuration not stated) | 8.3* | 2.8
C=CCc1c(C)nc(SCC(=O)c2cccs2)[nH]c1=O | -2.8 | .
NC1=NC(c2ccc(Cl)cc2)n2c(nc3ccccc32)N1 (configuration not stated) | -0.43 | -1.5
CCn1c(C(=O)N2CCC(C(=O)NC3CCCCC3C)CC2)cc2occc21 (configuration not stated) | -1.9 | -1.7
CCc1cccc(Nc2nc(-c3ccccc3F)no2)c1 | . | 0.14
O=C(CSc1nccn1Cc1ccco1)NCc1ccc2c(c1)OCO2 | . | 1.6
COCC1=C(C(=O)OC)C(c2ccc(OC)cc2)n2ncnc2N1 (configuration not stated) | -0.28 | .
CC(=O)c1c(C)[nH]c(=S)c(C#N)c1-c1cccs1 | -1.6 | .
